# Mtb betalactam: beta-lactam sensitization of Mtb H37Rv; M. tuberculosis H37Rv growth with meropenem, percent inhibition; hits of this screen are not shown here; inhibition, % at 25 µM; actives 0.27% (n = 330,000);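 active means about 74% or more and at least 40 points above the plate without the antibiotic, then above 30% in a dose series; inconclusive means first-round hits that could not be retested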;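 further: growth measured after seven days incubation then overnight dye step; 0% = bacteria only wells and 100% = bacteria with antibiotic; twin plates without the antibiotic show which effects depend on it; some results filed as inactive read as strong as hits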
# Mtb H37Rv: M. tuberculosis H37Rv growth inhibitors, H37Rv strain (AID 1626); M. tuberculosis H37Rv growth inhibition; higher % means a stronger effect; actives 0.95% (n = 220,000); inhibition, % at 10 µM; hits with a dose series show IC50 in µM;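 active means confirmed in a dose series; inconclusive means inhibition above 80% but not taken into the dose series; inactive means below 80% or under 30% at every dose of the series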;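 further: bacteria incubated seven days before Alamar blue readout; 0% = bacteria only wells and 100% = bacteria with antibiotic wells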
# Arbovirus inh: blocks arbovirus infection | arbovirus infection cell-based antiviral screen | actives 0.37% (n = 200,000) | inhibition, % at 10 µM;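 active means inhibition from about 30%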;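 further: bluetongue infection of BSR cells; cell survival read as ATP light after 72 h; 0% = infected wells without compound and 100% = uninfected wells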
# RecA intein inh: blocks M. tuberculosis RecA intein splicing | P9WHJ3 | actives 0.75% (n = 290,000) | inhibition, %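 (about 9 µM by stock and volumes)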 | cell-free RecA intein splicing, fluorescence | AID 2221; in the data active means inhibition above about 30%; inconclusive means no clear call, values can overlap the other calls;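 further: 0% = vehicle wells and 100% = reference inhibitor control wells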
# Target sequence (P9WHJ3 whole entry, looked up): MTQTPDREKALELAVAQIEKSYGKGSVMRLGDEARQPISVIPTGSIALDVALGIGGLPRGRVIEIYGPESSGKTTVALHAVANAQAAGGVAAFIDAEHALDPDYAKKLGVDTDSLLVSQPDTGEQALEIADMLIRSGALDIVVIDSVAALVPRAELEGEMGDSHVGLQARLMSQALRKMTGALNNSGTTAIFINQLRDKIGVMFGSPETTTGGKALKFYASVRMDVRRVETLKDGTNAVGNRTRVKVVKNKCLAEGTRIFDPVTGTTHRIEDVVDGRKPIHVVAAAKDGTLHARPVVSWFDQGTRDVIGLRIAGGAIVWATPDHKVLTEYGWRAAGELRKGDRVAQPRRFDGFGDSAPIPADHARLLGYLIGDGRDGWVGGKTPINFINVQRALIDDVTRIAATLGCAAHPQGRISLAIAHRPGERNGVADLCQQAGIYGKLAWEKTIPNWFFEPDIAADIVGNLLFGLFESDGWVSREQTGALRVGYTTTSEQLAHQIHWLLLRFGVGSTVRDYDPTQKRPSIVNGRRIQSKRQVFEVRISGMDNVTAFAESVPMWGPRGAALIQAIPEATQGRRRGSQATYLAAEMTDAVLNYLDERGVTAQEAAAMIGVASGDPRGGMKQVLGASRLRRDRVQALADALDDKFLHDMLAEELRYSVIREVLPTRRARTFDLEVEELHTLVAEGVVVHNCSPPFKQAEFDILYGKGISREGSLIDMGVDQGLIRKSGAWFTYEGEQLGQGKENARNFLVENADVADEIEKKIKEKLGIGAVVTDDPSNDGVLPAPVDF
# YopH inh: inhibitors of Yersinia enterocolitica YopH tyrosine phosphatase; fluorescence Ex485/Em525; inhibition, %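 (about 10 µM by stock and volumes)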; actives 0.16% (n = 140,000); AID 898;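 active means inhibition of 50% or more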;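 further: controls were vehicle for no effect and minimum signal wells for full effect; inactives centre near -20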
# Arbovirus inh repeat: further read-out of Arbovirus inh, marked with its call; inhibition, %; measured here: 10K subset replicate screen; many hits read low in the repeat;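 first of two repeat runs on a subset; 0% = infected and 100% = uninfected wells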
# Starred values were filed as active, the others as inactive; ? = inconclusive; . = not tested or not shown. This is a subset; the hit share may differ from the screen's.
SMILES,Mtb betalactam,Mtb H37Rv,Arbovirus inh,RecA intein inh,YopH inh,others
Cc1ccc(/C=N/NC(=O)Cn2nnc(N)n2)o1,2,-3%,.,-0.4,.,
COc1ccc(NC(C)=O)cc1NC(=O)c1ccc(C#N)cc1,0,-9%,6,-0.7,.,
COc1ccc(NC(=O)c2ccc3c(=O)n(CC4CCCO4)c(=S)[nH]c3c2)c(OC)c1 (centres undefined),2,.,.,3.6,.,
Cn1nnc(NC(=O)c2cccc(F)c2)n1,-5,-2%,3,-1.3,-46,
CCCOc1ccc(CSC(=N)N)cc1C(=O)OC,22,-7%,.,-1.1,.,
CCN(CC(=O)Nc1c(F)cccc1F)C(=O)CCNC(=O)c1ccc([N+](=O)[O-])cc1,-5,.,.,-3.3,.,
O=C(c1ccc(F)cc1)C1CCN(C(=S)Nc2ccc(F)cc2)CC1,1,.,.,1.7,.,
Cc1ccc(S(=O)(=O)Nc2nc3ccccc3nc2NCc2ccc3c(c2)OCO3)cc1C,-2,-7%,6,-3.3,-17,
CN(c1ccc(C(=O)N2CCc3ccccc3C2)cc1)S(C)(=O)=O,-1,5%,-1,2.2,-1,
COc1ccc(NC(=O)c2nc[nH]c2C(=O)N2CCC(C)CC2)cc1,3,-4%,.,-0.7,.,
Cc1csc2nnc(N)n12,-7,-2%,3,-2.5,-48,
Cc1cccc(NC(=O)COc2ccccc2)c1,78,11%,-2,.,6,
CCOc1ccc2nc(SCC(=O)N(C)C)[nH]c2c1,2,-11%,3,1.9,-3,
Cc1c(C)n(Cc2ccc(F)cc2)c2ccc(C(=O)N3CCN(c4ccccn4)CC3)cc12,-4,.,.,19,.,
COc1ccc(CCNCC(O)COc2cccc(C(C)=O)c2)cc1OC (centres undefined),-1,.,.,-0.7,.,
CCC(C)N(C(=O)COc1ccccc1C#N)C1CCS(=O)(=O)C1 (centres undefined),0,.,.,-1.0,.,
COc1ccc(-c2cc(C(F)(F)F)nc(N3CCOCC3)n2)cc1,3,-1%,2,5.9,-20,
COc1cc(NC(=O)CSC(=S)N2CCCC2)c(OC)cc1Cl,-10,.,.,0.5,.,
COc1ccc2nc(N=Nc3ccc(O)c4ccccc34)sc2c1,100,5.2µM*,-29,-2.7,-12,
CC(C)(C)Oc1ncc(Br)c(OC(C)(C)C)n1,1,-5%,2,3.6,-13,
CCCCC(=O)NC(=S)Nc1cc([N+](=O)[O-])ccc1OC,93,0%,-3,-2.1,.,
COCCNC(=O)/C(=C/c1ccccc1Cl)c1ccccc1,-10,-5%,4,-2.6,-36,
O=S(=O)(Nc1ccncc1Cl)c1ccccc1,0,-16%,4,0.3,-30,
CC(C)Cc1nc2oc3c(N4CCN(C)CC4)ncnc3c2c2c1CCCC2,.,-6%,4,2.2,-37,
COc1ccc(-c2cc(NCc3ccccn3)n3ncnc3n2)cc1,90,.,-21,4.0,-26,

# Continued (2 carried over from the part before).
SMILES,Mtb betalactam,Mtb H37Rv,Arbovirus inh,RecA intein inh,YopH inh,others
CC(C)Cc1nc2oc3c(N4CCN(C)CC4)ncnc3c2c2c1CCCC2,.,-6%,4,2.2,-37,
COc1ccc(-c2cc(NCc3ccccn3)n3ncnc3n2)cc1,90,.,-21,4.0,-26,
CC(=O)NCCn1c(SCC(=O)OCc2ccccc2)nc2ccccc2c1=O,7,-7%,-2,2.0,-34,
Cc1cccc(NC(=O)CSc2cc(C(=O)c3nccn3C)c3ccccc3n2)c1,6,10%,-1,-3.4,-14,
O=c1ccc(/C=C/c2ccccc2)nn1Cc1ccccc1,6,3%,-4,4.1,-25,
COc1cccc(-n2c(SCC(=O)NC3CCCCC3)nc3n[nH]c(C)c3c2=N)c1,10,13%,-36,2.4,-10,
CC1CC(=O)N(CC(=O)Nc2ccc(F)cc2F)c2ccccc2S1(=O)=O (centres undefined),-12,.,.,0.7,.,
CCN1CCc2ccccc2C1,-10,0%,.,0.3,.,
CCCOC(=O)c1ccc(NC(=O)c2cn(CC)c3nc(C)ccc3c2=O)cc1,.,.,-1,-2.0,13,
CCOc1ccc(N(CC(=O)NCCSc2ccccn2)S(C)(=O)=O)cc1,-2,1%,-4,0.5,-46,Arbovirus inh repeat=-1
COc1ccccc1NC(=O)Cn1c(O)c(N=NC(=O)c2ccccc2O)c2ccccc21,3,8%,-20,0.7,.,
CCN1CCc2c(sc(N)c2C(N)=O)C1,2,.,3,-17,-20,
Clc1cccc(Nc2nc(N3CCOCC3)nc(N3CCOCC3)n2)c1,-5,.,.,-2.0,.,
CC1CCCC(NC(=O)CN2C(=O)c3cccnc3Oc3ccc(Cl)cc32)C1C (centres undefined),?,.,.,-0.3,.,
COc1cc(C(=O)NC2=NCCS2)ccc1OCc1c(C)noc1C,-2,-1%,-4,-1.7,-29,
CN(C)/N=C/c1ccc(P(c2ccc(/C=N/N(C)C)o2)c2ccc(/C=N/N(C)C)o2)o1,-13,12%,31*,-3.7,.,
Cc1cc(C)c2c(N)c(C(=O)NC3CC3)sc2n1,-19,4%,-2,-5.7,4,
O=C(NCC1CCOCC1)c1ccc2nc(Cc3cccc(Cl)c3)oc2c1,-1,.,.,-1.6,.,
COc1ccccc1NC(=O)CSc1ccc2nnc(CCNC(=O)c3ccccc3)n2n1,0,.,.,-4.0,.,
CCC1=NN(C(=O)CCc2ccccc2O)C(O)(C(F)(F)F)C1 (centres undefined),6,-3%,1,5.0,-24,
COc1ccc(-n2cnc3sc(-c4ccccc4)cc3c2=O)cc1,8,-2%,-7,1.2,-37,
Cc1cc(C)cc(NC(=S)Nc2ccc3cn[nH]c3c2)c1,7,9%,0,1.5,-31,
O=C(Nc1cccc(Cl)c1)c1ccc(F)c(S(=O)(=O)N2CCN(c3ccccn3)CC2)c1,-5,-4%,-3,11,-7,
COc1ccc(OC)c(/C=C2\Oc3cc(OCC(=O)N4CCC[C@H]4C(=O)O)ccc3C2=O)c1,-4,.,.,-3.0,.,
COc1ccc(OC)c(C2C(C(=O)c3cccs3)=C(O)C(=O)N2CCN2CCOCC2)c1 (centres undefined),6,.,.,0.8,.,
CC(OC(=O)c1ccccc1OCc1ccc(Cl)cc1)C(N)=O (centres undefined),3,3%,3,-4.3,.,
Cc1cc([N+](=O)[O-])ccc1NC(=S)NC(=O)Cc1ccccc1,3,5%,3,7.8,-34,

# The results go on.
SMILES,Mtb betalactam,Mtb H37Rv,Arbovirus inh,RecA intein inh,YopH inh,others
COc1ccc2[nH]cc(CCNS(=O)(=O)c3ccc(F)cc3)c2c1,-6,-3%,3,1.8,.,
COc1ccc(-c2nc3ccccc3c(=O)n2CCOc2c(C)cccc2C)cc1,5,5%,7,-1.1,-25,
CCOC(=O)CCc1c(C)c2ccc(OCC(=O)OC(C)C)cc2oc1=O,8,-2%,-6,-2.3,-10,
COc1ccc(C(=O)Nc2nc(N)n(-c3ccccc3)n2)cc1,2,3%,3,2.9,-14,
O=C(Cc1ccccn1)c1ccccc1,10,.,.,-1.5,.,
O=C(Nc1ccc(Br)cc1)c1cccc2c1C(=O)N(C1CCCCC1)C2,-4,.,.,3.5,.,
CCOC(=O)C1CCN(c2ncnc3c2[nH]c2cccc(OC)c23)CC1,-21,-4%,5,4.8,-43,
O=C(CSc1nnc(-c2ccccc2)c(-c2ccccc2)n1)N1CCOCC1,-5,-1%,6,-0.3,0,
CCC(C)Sc1cc(C)c(C#N)c2nc3ccccc3n12 (centres undefined),3,2%,0,-61,-11,
Cc1oc2c(c1C(=O)NCc1cccnc1)C(=O)c1ccccc1C2=O,100,.,-22,75*,.,
COc1ccc(OCC(=O)Nc2ccc(NC(=O)c3cccs3)c(OC)c2)cc1,-6,16%,11,-0.9,.,
Cn1c(SCC(=O)Nc2sccc2C#N)nnc1-c1ccccc1,-16,-4%,-6,.,-25,
CCc1ccc(NC(=S)N(CCCN2CCOCC2)Cc2ccco2)cc1,-1,5%,12,0.7,.,
O=C(Nc1nccs1)c1ccc(-c2ccc(Cl)cc2)o1,99,?,4,-0.8,.,
O=C1C(N2CCOCC2)=C(n2nnc3ccccc32)C(=O)c2ccccc21,9,9%,-40,26,69*,
CC(C)CC(NC(=O)C1CCC(C)CC1)C(=O)NCc1ccccn1 (centres undefined),-2,-2%,1,.,-16,
CC(=O)c1ccc(Oc2cc(C)nc(-n3nc(C)cc3C)n2)cc1,85,24%,-10,-2.4,12,
COc1ccc(NS(=O)(=O)c2cc(OCC(N)=O)c(C)cc2Cl)cc1,0,-2%,2,1.2,-22,
c1cc2c3c(cccc3c1)NC(c1ccc3c(c1)OCO3)N2,33,.,.,-2.9,.,
Cn1c(=O)c2c3c(sc2n2cnnc12)CCC3,1,-2%,6,-1.6,-51,
CCOC(=O)C1CCCN(C(=O)c2cc(S(=O)(=O)Nc3ccccc3OC)ccc2C)C1 (centres undefined),-8,1%,.,3.3,.,
Cc1cc(-c2nc(C)c(C(=O)NNS(=O)(=O)c3ccc(Cl)cc3Cl)s2)no1,25,-1%,.,-2.0,.,
COc1cc(/C=C/C(=O)OCC(=O)Nc2cc(S(=O)(=O)N3CCCCC3)ccc2C)ccc1O,2,3%,1,0.4,-4,
S=C1NCCc2ccc(Cl)cc2C1c1ccccc1Cl (centres undefined),-9,-1%,-6,12,-26,
O=P(CCCO)(Cc1ccccc1)Cc1ccccc1,-3,.,.,1.2,.,
CSCCC(=O)N1CCN(CC(=O)N2CCCC2)CC1,7,.,.,-3.1,.,

# Structural class: the compounds so far with a Cl atom
SMILES,Mtb betalactam,Mtb H37Rv,Arbovirus inh,RecA intein inh,YopH inh,others
COc1cc(NC(=O)CSC(=S)N2CCCC2)c(OC)cc1Cl,-10,.,.,0.5,.,
COCCNC(=O)/C(=C/c1ccccc1Cl)c1ccccc1,-10,-5%,4,-2.6,-36,
O=S(=O)(Nc1ccncc1Cl)c1ccccc1,0,-16%,4,0.3,-30,
Clc1cccc(Nc2nc(N3CCOCC3)nc(N3CCOCC3)n2)c1,-5,.,.,-2.0,.,
CC1CCCC(NC(=O)CN2C(=O)c3cccnc3Oc3ccc(Cl)cc32)C1C (centres undefined),?,.,.,-0.3,.,
O=C(NCC1CCOCC1)c1ccc2nc(Cc3cccc(Cl)c3)oc2c1,-1,.,.,-1.6,.,
O=C(Nc1cccc(Cl)c1)c1ccc(F)c(S(=O)(=O)N2CCN(c3ccccn3)CC2)c1,-5,-4%,-3,11,-7,
CC(OC(=O)c1ccccc1OCc1ccc(Cl)cc1)C(N)=O (centres undefined),3,3%,3,-4.3,.,
O=C(Nc1nccs1)c1ccc(-c2ccc(Cl)cc2)o1,99,?,4,-0.8,.,
COc1ccc(NS(=O)(=O)c2cc(OCC(N)=O)c(C)cc2Cl)cc1,0,-2%,2,1.2,-22,
Cc1cc(-c2nc(C)c(C(=O)NNS(=O)(=O)c3ccc(Cl)cc3Cl)s2)no1,25,-1%,.,-2.0,.,
S=C1NCCc2ccc(Cl)cc2C1c1ccccc1Cl (centres undefined),-9,-1%,-6,12,-26,
